VACV mCherry inh – inhibitors of vaccinia virus infection (mCherry reporter signal); actives 0.63% (n = 310,000); Vaccinia virus mCherry reporter infection, fluorescence; about a quarter of the inactives have no number; Potency, µM (titrated, usually from 36.5 µM), for the others: at the highest dose activity change, negative = inhibition, hits mostly inhibitors; AID 720579; active = well fitted inhibition curve with a large enough effect; inconclusive = small, poorly fitted or top-dose-only effect; inactive = no such curve, though single readings can be large or run the other way; tested in A549 cells; further: nearly all actives have a fitted effect of over 35% in size; inactives centre near -10
Vaccinia Venus – inhibitors of vaccinia virus (Venus reporter). Vaccinia virus Venus reporter expression, fluorescence. Potency, µM (top dose mostly 36.5 µM), inactives show at the top dose activity change, negative = inhibition, hits mostly inhibitors. actives 0.46% (n = 330,000). AID 720580; active means well fitted inhibition curve with a large enough effect; inconclusive means small, poorly fitted or top-dose-only effect; inactive means no such curve, though single readings can be large or run the other way; tested in A549 cells; further: nearly all actives have a fitted effect of over 30% in size; inactives centre near -10
* hit, by the source's call; i = inactive; ? = inconclusive; . = not tested or not shown; & = joins results of further samples; [ ] = remark or other dose. On the % scale 0 is the no-effect control and ±100 the full control effect; potency means the concentration at half of the fitted maximal effect.

SMILES	VACV mCherry inh	Vaccinia Venus
CC1=Nc2ccccc2/C1=C/c1c(C)[nH]c2ccccc12	?	0%
CCN(CC)c1cc2nc(C)n(Cc3ccccc3)c(=O)c2cc1NC(=O)C1CC1	i	-9%
Cc1ccc(C)c(OCC(O)CN2CCC(CN3C(=O)c4cccc5cccc(c45)C3=O)CC2)c1 (configuration not stated)	-1%	-17%
CN(C(=O)c1cccc(C#N)c1)c1nnc(-c2cnccn2)s1	-13%	-6%
Nc1nc(NCc2ccc(Cl)c(Cl)c2)c2[nH]cnc2n1	-30%&-11%	-24%&-18%
Cn1c(SCC(=O)Nc2ccc(F)cc2)nnc1C1CC1	-19%	-1%
Cc1ccc(C(=O)Nc2ccc(-c3csc(C)n3)cc2)cc1	-4%	-24%
O=C1C(Cc2ccccc2)Nc2ncnc(N3CCN(c4ccccc4)CC3)c2N1Cc1ccc(Br)cc1 (configuration not stated)	?	-26%&3%
CCOc1ccc(NC(=O)CNC(=O)COc2ccccc2)cc1	-14%	-1%
O=C(CN(c1cccc([N+](=O)[O-])c1)S(=O)(=O)c1ccccc1)N(Cc1ccccc1)Cc1ccccc1	i	-7%
C=CCNc1c2c(nc3nnnn13)CCCC2	i	-3%
CC(C)(C)c1nc2ccc(Cl)cn2c1CC1CCCCC1	-9%	-13%
Cc1ccccc1OCc1ccc(-c2nc(C#N)c(NCCCN(C)C)o2)o1	-12%[7.34 µM]	-12%[7.34 µM]
Cc1ccc(N2CC(C(=O)NCCS(=O)(=O)N3CCN(c4ccc(F)cc4)CC3)CC2=O)cc1 (configuration not stated)	-10%	-12%[7.34 µM]
O=C(Nc1cc(Cl)ccc1-n1cncn1)c1ccccc1OC(F)F	-5%	-18%
Cc1ccc(NC(=O)N2CCCc3ccccc32)cc1	-3%	-3%
COc1cccc2c(=O)cc(C)n(CC(=O)Nc3ccccc3C)c12	-5%	-27%
COc1ccc([C@H]2CC(=O)C=C(c3ccc4ccccc4c3)C2)cc1OC	?	?
CCC(c1nnnn1Cc1ccccc1)N1CCN(C/C=C/c2ccccc2)CC1 (configuration not stated)	6%	2%
O=C(CCCC(=O)N(c1ccc2c(c1)OCCO2)C(C(=O)NC1CCCCC1)c1ccc(F)cc1)Nc1ccccn1 (configuration not stated)	-18%	-23%

A second format for some results above:
Cc1ccccc1OCc1ccc(-c2nc(C#N)c(NCCCN(C)C)o2)o1
- VACV mCherry inh: -12%[7.34 µM]
- Vaccinia Venus: -12%[7.34 µM]
Cn1c(SCC(=O)Nc2ccc(F)cc2)nnc1C1CC1
- VACV mCherry inh: -19%
- Vaccinia Venus: -1%

(list continues)
SMILES	VACV mCherry inh	Vaccinia Venus
COc1cccc(-c2cnc(C(O)c3ccc(C)cc3)[nH]2)c1 (configuration not stated)	i	-4%
Cc1occc1-c1nnc(SCC(=O)N2CCc3ccccc32)o1	i	-11%
CN(C)c1ccc(CNC(=O)C2CCCN(S(=O)(=O)c3ccc4c(ccn4C)c3)C2)cc1 (configuration not stated)	-19%	-7%
COCCn1nnnc1SCC(=O)c1ccc(F)cc1	-12%	3%
Cc1ccc(C)c(N2CCN(C(=O)c3ccc(Cl)c(NC4=NC5CS(=O)(=O)CC5S4)c3)CC2)c1 (configuration not stated)	-3%	-21%
CN(c1ccccc1)S(=O)(=O)c1cccc(NC(=O)CCNC(=O)c2ccco2)c1	-27%	-19%
CCC(=O)Nc1c(C(=O)N2CCN(c3ccccn3)CC2)cnn1-c1ccc(C)cc1	-1%	1%
Cc1ccccc1Cn1nc(C)c(NC(=O)c2nc3n(n2)C(C(F)F)CC(C)N3)c1C (configuration not stated)	-18%[1.46 µM]	-13%
CC(C)c1c(Cl)c(O)c(-c2ccccc2)c(=O)n1-c1ccc(F)cc1	i	-7%
CC(C)(C(=O)NO)c1ccccc1	-1%	-16%
CC(CNS(=O)(=O)c1cc(Cl)ccc1Cl)CN(C)C (configuration not stated)	-19%	-17%
CCOC(=O)C1CCN(S(=O)(=O)c2cc(-c3onc(C)c3C)ccc2C)CC1	-15%	-7%
Cn1c(=O)[nH]c2c(nc(-c3ccc(Cl)cc3)n2C)c1=O	i	-3%
Cc1ccc(-c2cc(-c3ccccc3)no2)cc1	-6%	4%
CCOc1ncccc1C(=O)NCc1ccc(C)cc1	-9%	-15%
CCCCCOC(=O)c1ccc(OC(=O)c2sc3ncn(Cc4cccc(F)c4)c(=O)c3c2C)cc1	-8%	-3%
COc1ccccc1N(CC(=O)NCC(C)C)S(=O)(=O)c1cccs1	i	-13%
CC(=O)NC1(c2ccccc2)CCN(c2cc(C)nc(-c3ccccc3)n2)CC1	-17%	-22%
O=C(N/N=C/c1ccc(Br)o1)c1ccc2c(c1)OCCO2	i	-7%
CCN(C(=O)CSc1nc(C)nc2sc3c(c12)CCC3)C1CCS(=O)(=O)C1 (configuration not stated)	16%	23%
COC(=O)C1=C(C)N(Cc2ccccc2)C(=NCC2CC2)N[C@H]1c1ccccc1	i	-21%
CN(C)CCCN(C(=O)c1sc2ccccc2c1Cl)c1nc2ccc(F)cc2s1	i	-10%
COc1cc(OC)c(OC)cc1C=O	i	-6%&-20%
COc1ccc(C(=O)/C=C/N(C)C)cc1OC	.	-10%
FC(F)(F)C1=Nc2cccc3cccc(c23)N1	-13%	1%
CC1CCCN(C(=O)c2cc(S(=O)(=O)N3CCCCC3)c[nH]2)C1 (configuration not stated)	-2%	-9%
O=C(CCc1nnc2ccc(NCc3ccccc3Cl)nn12)N1CCC2(CC1)OCCO2	11%[7.34 µM]	29%[7.34 µM]
CCOC(=O)C(NCc1ccc(OC)cc1)(NC(C)=O)C(F)(F)F (configuration not stated)	i	-3%
COc1ccc(S(=O)(=O)N2CCCC(C(=O)Nc3cccnc3)C2)cc1Cl (configuration not stated)	?	?
CCOC(=O)c1nsnc1NCCCl	-4%	-3%

Sorted by heavy-atom count (rising): part of the list above.
SMILES	VACV mCherry inh	Vaccinia Venus
COc1cc(OC)c(OC)cc1C=O	i	-6%&-20%
COc1ccc(S(=O)(=O)N2CCCC(C(=O)Nc3cccnc3)C2)cc1Cl (configuration not stated)	?	?
O=C(CCc1nnc2ccc(NCc3ccccc3Cl)nn12)N1CCC2(CC1)OCCO2	11%[7.34 µM]	29%[7.34 µM]

Continuation.
SMILES	VACV mCherry inh	Vaccinia Venus
O=C(NN1C(=O)C2C3C=CC(O3)C2C1=O)c1cccc(O)c1 (configuration not stated)	-12%	4%
COc1ccccc1CCNC(=O)C(=O)NCC(c1cccs1)S(=O)(=O)c1ccccc1 (configuration not stated)	-17%	-14%
O=C(CSc1nnc(NC(=O)Nc2ccccc2)s1)Nc1cccc(F)c1	-4%[7.34 µM]	-9%[7.34 µM]
COc1cccc(-n2c(=O)[nH]cc(C(=O)Nc3ccc(NC(C)=O)cc3)c2=O)c1	i	-21%
CC1CC(C)CN(CCCNC(=O)c2cn(C)c3ccc(S(=O)(=O)N4CCCC4)cc3c2=O)C1 (configuration not stated)	0%	-16%
CC(=O)N(C(C)=O)c1ccc(Oc2ccc(Oc3ccc(N(C(C)=O)C(C)=O)cc3)cc2)cc1	-7%	?
CCOC(=O)CC(=O)CSc1nc2cc(C)ccc2cc1C	-10%	0%
CC(CN(C)Cc1ccccc1)OC(=O)c1ccc(F)cc1 (configuration not stated)	-13%	-3%
C=CCN(c1ccccc1)S(=O)(=O)c1cccc(C(=O)N(CC)CC(=O)Nc2c(F)cccc2F)c1	-10%	-19%
COc1ccc2ccccc2c1/C=N/NC(=O)c1sc(N)c(C#N)c1C	-3%	-5%

Looked up above:
CC(CN(C)Cc1ccccc1)OC(=O)c1ccc(F)cc1 (configuration not stated) in Vaccinia Venus has -3%
O=C(CSc1nnc(NC(=O)Nc2ccccc2)s1)Nc1cccc(F)c1 in VACV mCherry inh has -4%[7.34 µM]
COc1cccc(-n2c(=O)[nH]cc(C(=O)Nc3ccc(NC(C)=O)cc3)c2=O)c1 in Vaccinia Venus has -21%
C=CCN(c1ccccc1)S(=O)(=O)c1cccc(C(=O)N(CC)CC(=O)Nc2c(F)cccc2F)c1 in Vaccinia Venus has -19%
CC(=O)N(C(C)=O)c1ccc(Oc2ccc(Oc3ccc(N(C(C)=O)C(C)=O)cc3)cc2)cc1 in VACV mCherry inh has -7%

The list continues.
SMILES	VACV mCherry inh	Vaccinia Venus
N=c1c2c(ncn1CCCO)Oc1ccc3ccccc3c1C2c1ccccc1 (configuration not stated)	i[7.34 µM]	-4%[7.34 µM]
COc1cc(/C=N/Nc2ccc(Cl)cc2)ccc1OC(=O)c1cccs1	-10%	1%
Cc1cccc(C)c1NS(=O)(=O)c1cc2c3c(c1)CCN3C(=O)CC2	-1%	-13%
COCCN(C(=O)COc1ccccc1C#N)c1c(N)n(Cc2ccccc2)c(=O)[nH]c1=O	i	8%
Cc1ccc2c(c1)nnn2C1CCN(S(=O)(=O)c2cccc(S(=O)(=O)N(C)C)c2)CC1	-25%	-24%
Cn1c(=O)n(CCOc2ccccc2Cl)c2ccccc21	.	-22%
Cn1c(N)c(C(=O)COC(=O)/C=C/c2cccc(Cl)c2)c(=O)n(C)c1=O	-2%	-11%
CCOC(=O)Nc1sc(C(=O)N(CC)CC)c(C)c1C(=O)OCC	-2%	0%
CCC(=O)OCC(=O)Nc1cc(S(=O)(=O)N(C)C)ccc1Cl	9%	0%
COc1ccc(CNC(=O)Cn2ncn3c(cc4ccccc43)c2=O)cc1	i	-8%

Fetched by compound from the entries so far:
SMILES	VACV mCherry inh	Vaccinia Venus
CC1CCCN(C(=O)c2cc(S(=O)(=O)N3CCCCC3)c[nH]2)C1 (configuration not stated)	-2%	-9%
CC(C)(C(=O)NO)c1ccccc1	-1%	-16%

More results
SMILES	VACV mCherry inh	Vaccinia Venus
CCCCCCC(=O)N(O)C1CC(=O)N(c2ccc(Cl)cc2)C1=O (configuration not stated)	i[7.34 µM]	-2%[7.34 µM]
CC(C)[C@H](NC(=O)OC(C)(C)C)c1cc(C(=O)N(C)CCN(C)C)c(N)s1	?	-2%
CCNC(=S)N1CCCC(C(N)=O)C1 (configuration not stated)	-2%	3%
O=C(Nc1ccc2oc(-c3ccccc3F)nc2c1)c1ccccc1Cl	-25%	-10%
Cc1ccc(-c2cc(C(=O)Nc3ccccc3C)c3ccccc3n2)o1	-9%	?
COc1ccc(C2Nc3ccccc3C(=O)N2c2ccc(C)cc2)cc1Cn1nc(C)c([N+](=O)[O-])c1C (configuration not stated)	0%	-11%
Cc1ccc(OCC(=O)Nc2oc(-c3ccccc3)c(-c3ccccc3)c2C#N)cc1	-20%	-18%
O=C(Cc1ccccc1)N1CCN(c2ncccn2)CC1	i	-4%
O=C(CSc1ccccc1F)NCCN1C(=O)CSC1=O	-14%	-13%
COCCn1c(C)cc(/C=C(\C#N)C(=O)OCC(=O)N(C)c2c(N)n(Cc3ccccc3)c(=O)[nH]c2=O)c1C	-10%	-3%
CO/N=C(/CNC(=O)c1ccccc1Cl)c1ccc(Cl)cc1	-4%	-4%
CCOC(=O)/C(=N/Nc1ccc(OC)cc1)Sc1nnc(CCc2ccccc2)n1-c1ccccc1	-16%	-10%
COc1ccc(Nc2ncnc3onc(C)c23)c(OC)c1	5%	2%
CNS(=O)(=O)c1ccc(NC(=O)C2CC(=O)N(c3ccc(Cl)cc3)C2)cc1 (configuration not stated)	-21%	?
COC(=O)c1ccc2c(=O)[nH]c(CCl)nc2c1	i	-15%
COc1ccc(-c2ccc3c(N)c(C(=O)NC(C)C)sc3n2)cc1OC	-23%	-22%
Cc1ccc(S(=O)(=O)N2CCOCC2)cc1NC(=O)COC(=O)c1ccc2c(c1)OCCO2	i	-1%
Cc1cc(NC(=O)/C(C#N)=C\c2ccc(-c3ccc(SC(F)F)cc3)o2)n(-c2ccccc2)n1	-3%	0%
CCCCN(Cc1ccccc1)C(=O)C1CCN(Cc2sccc2C)CC1	?	-14%
CC(C)C(=O)Nc1cccc(-c2nc3ccccc3c(=O)o2)c1	.	-3%
COc1ccccc1CC(NC(C)=O)C(=O)N1CCN(C(=O)c2cccs2)CC1 (configuration not stated)	.	10%
CCC(=O)Nc1ccc(C)cc1-c1nc2ccccc2n(CC(=O)Nc2ccccc2Cl)c1=O	-25%	?
CCOc1ccc(C(=O)Nc2c(C(=O)N3CCN(c4ccccc4F)CC3)oc3ccccc23)cc1	-17%	2%
C[N+](C)(C)CCOC(=O)CBr	-3%	-21%&-9%
CCC(=O)N1CCc2cc(CNC(=O)Nc3cc(C)ccc3C)ccc21	-21%	-12%
CC(=O)N1CSCC1C(=O)N1CCN(c2ccc(N3CCOCC3)nn2)CC1 (configuration not stated)	i	0%
CC(C)n1c(=O)c2ccccc2n1C(=O)c1ccccc1	4%	0%
CC(C)CCNC(=O)NC(=O)COC(=O)/C=C/c1cc(Br)ccc1F	-3%	2%
COC(=O)c1sc2cccc(F)c2c1S(=O)(=O)N1CCN(c2cccc(C)c2)C(C)C1 (configuration not stated)	-1%	3%
CCOC(=O)C1(C)NC(c2ccco2)C2C(=O)N(c3ccc(C)cc3)C(=O)C21 (configuration not stated)	-1%	-1%
CCCCC(CC)C(=O)Nc1cccc(SC)c1 (configuration not stated)	-32%	-1%
Cc1c(CNC2CCC(C)CC2)c(C(=O)O)c(C)n1Cc1ccccc1F (configuration not stated)	4%	13%
COc1ccc(C(=O)N(C)[C@H]2C[C@H]3c4[nH]c5ccccc5c4CCN3C(=O)[C@H]2CO)cc1	?	-4%
CSCCC(NC(N)=O)C(=O)NCc1ccccc1Cl (configuration not stated)	-6%	-3%
CCNc1nc(OC)nc(Oc2ccc(=O)[nH]n2)n1	9%	4%
CC(Nc1cc(N2CCN(S(=O)(=O)N(C)C)CC2)ccc1[N+](=O)[O-])c1ccccc1 (configuration not stated)	-10%	-23%
O=NN(CCF)C(=O)NC1CCS(=O)(=O)CC1	-6%	6%
O=C(NCCSc1c[nH]c2ccccc12)c1ccco1	-25%	-13%
N#Cc1cnc2nc1NCCCCCCC2	i	-25%

Screening data (PubChem)
